LASV entry inh: inhibitors of Lassa virus binding or cell entry; Lassa virus pseudotype entry inhibition, cell reporter; control for the full effect not named in the record; Potency, µM (titrated, usually from 37.9 µM), inactives show at the highest dose activity change, negative = inhibition, usual class: inhibitors; AID 540256; 300,000 compounds, 1.2% hits; active means well fitted inhibition curve with a large enough effect; inconclusive means small, poorly fitted or top-dose-only effect, or effect the other way; inactive means flat fitted curve, though single readings scatter; tested in HEK293 cells; further: on the % scale 0 is the no-effect control and ±100 the full control effect; nearly all actives have a fitted effect of over 50% in size; luciferase read-out
SARS PLpro yeast: SARS-CoV PLP inhibition in yeast. S. cerevisiae expressing SARS-CoV PLpro, growth rescue; control for the full effect not named in the record. Potency, µM (highest dose often 32.9 µM), inactives show at the top dose activity, positive = growth rescue. 330,000 compounds, 0.19% hits. AID 485353; further: 0% is about no effect; nearly all actives have a fitted effect of over 55% in size; growth read by luminescence after 48 h
Cruzain inh Det: inhibitors of Trypanosoma cruzi cruzain with detergent. 200,000 compounds, 0.43% hits. Potency, µM, for the others: max response, negative = inhibition, usual class: inhibitors. P25779. purified cruzain, Z-FR-AMC fluorescence, 0.01% Triton. AID 1478; active means well fitted curve in the direction sought with a large enough effect; inconclusive means small, poorly fitted or top-dose-only effect, or another doubt; inactive means no such curve, though single readings can be large; an effect the other way counts as inactive or inconclusive;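 further: plate controls were neutral wells for no effect and buffer without enzyme for full effect; nearly all actives have a fitted effect of over 40% in size; top concentration of the series not given in the record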
Target sequence (P25779 123-467 limits assumed): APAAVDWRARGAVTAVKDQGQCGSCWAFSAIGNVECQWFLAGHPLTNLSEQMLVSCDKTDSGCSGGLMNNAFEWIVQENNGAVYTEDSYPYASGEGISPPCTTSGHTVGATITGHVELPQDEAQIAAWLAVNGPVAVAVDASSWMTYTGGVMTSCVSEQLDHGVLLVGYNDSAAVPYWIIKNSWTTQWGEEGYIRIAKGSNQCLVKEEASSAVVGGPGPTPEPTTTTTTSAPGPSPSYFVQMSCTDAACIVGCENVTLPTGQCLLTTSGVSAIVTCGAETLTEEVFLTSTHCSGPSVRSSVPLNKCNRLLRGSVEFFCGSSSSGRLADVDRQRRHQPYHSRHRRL
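Detergent-containing run (0.01% Triton X-100) in acetate buffer pH 5.5 with 5 mM DTT: enzyme at 1.5 nM final, 15 min compound preincubation at room temperature, then 2 uM Z-FR-AMC substrate. Activity taken as 60 s fluorescence increase at 360/450 nm.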
Cruzain inh noDet: inhibitors of Trypanosoma cruzi cruzain without detergent; purified cruzain, Z-FR-AMC fluorescence, no detergent; Potency, µM, inactives show max response, negative = inhibition, usual class: inhibitors; 200,000 compounds, 2.3% hits; active means well fitted curve in the direction sought with a large enough effect; inconclusive means small, poorly fitted or top-dose-only effect, or another doubt; inactive means no such curve, though single readings can be large; an effect the other way counts as inactive or inconclusive;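 further: plate controls were enzyme without inhibitor for no effect and buffer without enzyme for full effect; nearly all actives have a fitted effect of over 40% in size; top concentration of the series not given in the record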
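Purified cruzain at 1.5 nM, pre-incubated 15 min with compound at room temperature in 100 mM sodium acetate pH 5.5, 5 mM DTT, 0.00005% Triton X-100. Reaction started with 2 uM Z-FR-AMC; AMC fluorescence increase over 60 s gives rate.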
RE007 growth inh: less growth of the S. pombe RE007 Vpr strain; S. pombe RE007 Vpr strain, BacTiter-Glo ATP luminescence, 24 h; control for the full effect not named in the record; Potency, µM (titrated, usually from 92.2 µM), inactives show top-dose activity change, negative = less growth; 360,000 compounds, 0.21% hits; active = well fitted falling curve with a large enough effect; inconclusive = small, poorly fitted or top-dose-only effect; inactive = no such curve, though single readings can be large or run the other way;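 further: on the % scale 0 is the no-effect control and ±100 the full control effect; nearly all actives have a fitted effect of over 50% in size; the assay follows cell death caused by Vpr and the record does not say whether a fall means rescue or toxicity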
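Fission yeast strain RE007, carrying one chromosomally integrated HIV-1 vpr copy, was seeded at OD 0.01 in PMG+AL medium with 23 nL pinned compound. After 24 h at 30 °C and 99% humidity, viability was read by BacTiter-Glo luminescence.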
NS1 inh: inhibitors of influenza NS1 protein function; S. cerevisiae slowed by influenza A NS1, growth recovery by OD600; AID 2326; Potency, µM (doses to about 46.1 µM), for the others: top-dose activity, positive = more growth; 270,000 compounds, 0.4% hits; further: actives are rising curves; nearly all actives have a fitted effect of over 50% in size
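A cell-based growth assay was used: compounds that relieve NS1-induced slow growth of budding yeast raise OD600. Assay medium was yeast nitrogen base with ammonium sulphate and -URA supplement, pH 6.0, with 2% galactose.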
2A StopGo: lowers the luciferase signal of an FMDV 2A StopGo reporter; human cells with a luciferase reporter of 2A StopGo recoding; control for the full effect not named in the record; Potency, µM (series often up to 57.9 µM), inactives show top-dose signal change, negative = less light; 410,000 compounds, 1.2% hits; active = well fitted falling curve with a large enough effect; inconclusive = small, poorly fitted or top-dose-only effect; inactive = no such curve, though single readings can be large or run the other way; tested in HEK293T cells; further: on the % scale 0 is the no-effect control and ±100 the full control effect; nearly all actives have a fitted effect of over 45% in size; luciferase light after 4 h
Marburg entry inh: blocks Marburg virus binding to or entry into cells; 300,000 compounds, 1.8% hits; Marburg virus pseudotyped entry inhibition, cell reporter; control for the full effect not named in the record; about a third of the inactives were read at about 46 µM; Potency, µM (top dose mostly 37.8 µM), without a hit: top-dose activity change, negative = inhibition, hits mostly inhibitors; active = well fitted inhibition curve with a large enough effect; inconclusive = small, poorly fitted or top-dose-only effect, or effect the other way; inactive = flat fitted curve, though single readings scatter; tested in HEK293 cells; about a fifth of its hits are not listed in these tables; further: on the % scale 0 is the no-effect control and ±100 the full control effect; luciferase read-out
An asterisk follows results filed as active; ? = inconclusive; nt = no result given; & = joins results of further samples; [ ] = another dose, or the depositor's remark. Unless noted, the call rests on the fitted dose curve; in most records, active means well fitted rising curve with a large enough effect; inconclusive means small, poorly fitted or top-dose-only effect; inactive means no such curve, though single readings can be large or run the other way. Potency means the concentration at half of the fitted maximal effect.

SMILES	LASV entry inh	SARS PLpro yeast	Cruzain inh Det	Cruzain inh noDet	RE007 growth inh	NS1 inh	2A StopGo	Marburg entry inh
COc1cc(NS(=O)(=O)c2ccc(NC(=O)/C=C/C(=O)O)cc2)nc(OC)n1	-6%	-1%	nt	nt	-6%	11%	2%	?
CCOC(=O)C1(C(=O)OCC)C(c2ccccc2)CC(O)N1C(C)=O (stereo not drawn)	-2%	-1%	nt	nt	17%	nt	-7%	?
COc1ccc(NC(=O)CSc2nnc(CCC(=O)Nc3ccc(C)c(Cl)c3)n2C)cc1	1%	-2%	-3.3%	1%	156%	7%	nt	-12%
CC(C)c1cccc(C(C)C)c1NC(=O)COC(=O)c1ccc(OCC(=O)Nc2cccc(C(F)(F)F)c2)cc1	-17%&0%	9%	-3.0%	-22%	1%	12%	-13%	-28%&8%
C=CCn1c(CC(C)(C)C)nc2ccccc21	-9%	1%	nt	nt	-1%	nt	-20%	2%[46.1 µM]
CN(CC(=O)Nc1ccc(F)cc1)C(=O)COC(=O)C1CCN(c2ccc(C(F)(F)F)cn2)CC1	1%[46.1 µM]	4%	nt	nt	17%	nt	0%	17%
Cc1ccc(C)c(NC(=O)Cn2c(=O)nc(-c3ccccc3)c3ccccc32)c1	?	nt	-1.4%	?	nt	nt	1%	nt
COc1ccccc1N=Nc1c(C)n[nH]c1C	nt	-4%	nt	nt	-19%	-7%	-12%	nt
CC(=O)c1ccc(NC2c3ncccc3C(=O)N2Cc2ccc(F)cc2)cc1 (stereo not drawn)	10%	2%	-5.4%	-4%	8%	-5%	-5%	8%
COC(=O)c1cccc(NC(=O)C(C)(C)C)c1	-4%[46.1 µM]	1%	nt	nt	0%	-3%	-3%	-8%[46.1 µM]
COc1cc(C(=O)Nc2ccc(C#N)cc2)c([N+](=O)[O-])cc1OC	3%	2%	nt	nt	-7%	nt	-2%	-21%[46.1 µM]
O=[N+]([O-])c1cccc2[nH]ncc12	18%	nt	nt	nt	25%	nt	-7%	?
O=C1C2C3CCCC3=C3CCCC3C2C(=O)N1c1cccc(Cl)c1 (stereo not drawn)	15%	-9%	-12%	-12%	-5%	3%	-25%	-23%
COc1ccc(C2=CC(c3ccc4c(c3)OCO4)c3c(c4ccccc4oc3=O)O2)cc1OC (stereo not drawn)	?	nt	nt	nt	-9%	nt	-7%	-21%
COc1c(C)cccc1C(=O)NC(=S)Nc1ccccc1N1CCCC1	nt	-3%	nt	nt	-7%	19%	14%	nt
CN(CCC#N)S(=O)(=O)c1ccc2[nH]cc(C(=O)NCCc3ccccc3)c(=O)c2c1	?	4%	-7.8%	22%	6%	-1%	0%	?
CC(=O)c1ccc(OCc2cc(C(=O)NCCc3ccc(Cl)cc3)no2)cc1	nt	10%	nt	nt	11%	-9%	3%	nt
COc1cc(N2CCOCC2)ncn1	0%	-1%	4.8%	2%	12%	-4%	21%	-5%
CC(C)(C)c1ccc(C(=O)NC(Cc2ccccc2)C(=O)O)cc1 (stereo not drawn)	nt	0%	2.6%	8%	nt	22%	nt	0%
Cc1cc(C(=O)CN2C(=O)C(=O)N(Cc3ccco3)C2=O)c(C)n1CCc1ccccc1	?	-1%	nt	nt	-2%	nt	-12%	?
COc1ccc(NC(=S)N(CCc2nc3cc(C)c(C)cc3[nH]2)Cc2cccnc2)cc1	1%	-7%	-3.9%	3%	-8%	-33%	3%	?
CCOc1ccc(C(C)=O)cc1COc1cccnc1[N+](=O)[O-]	?	-4%	nt	nt	-17%	-70%	6%	?
COc1ccccc1NCc1ccc([N+](=O)[O-])s1	-1%	?	-7.1%	-5%	-28%	11%	-17%	6%
COc1ccc(CCNC(=O)c2cc(S(=O)(=O)N3CCOCC3)ccc2N2CCCC2)cc1OC	-13%[46.1 µM]	-3%	nt	nt	4%	nt	-4%	18%
CC1CCN(C(=O)CSc2nnc(CNC(=O)c3ccc(S(=O)(=O)N(C)C)cc3)o2)CC1	-12%	-2%	nt	nt	-13%	-3%	-10%	-14%
N#Cc1c(N)nc2c(c1N)CC(CCl)O2 (stereo not drawn)	?	10%	6.0%	-13%	-8%	21%	4%	8%
Cc1csc(NC(=O)CSc2ncc(-c3ccccc3)[nH]2)n1	3%	-7%	-5.1%	4%	1%	-13%	2%	-3%
Cc1ccc(C(=O)O)cc1-n1c(C)ccc1-c1ccccc1	-2%[46.1 µM]	nt	-19%	23%	nt	nt	-25%	nt
CC(C)(C)C(=O)COC(=O)C1CC(=O)N(c2ccccc2)C1 (stereo not drawn)	nt	1%	nt	nt	8%	4%	4%	nt
CCCCC(=O)Nc1cc([N+](=O)[O-])ccc1Cl	2%	6%	-2.1%	8%	3%	-2%	2%	?
COC(=O)[C@H](Cc1ccccc1)NC(=O)NCc1cccs1	9%	-3%	2.0%	-8%	-1%	-4%	14%	13%
COc1cc(OC)cc(C(=O)N[C@H](C(=O)OCC(=O)Nc2ccc(C)cc2C)C(C)C)c1	-15%	11%	-14%	-7%	5%	-77%	-8%	2%
COc1cc(-c2nnc(SCCOc3ccc(Cl)cc3)o2)cc(OC)c1OC	-2%[46.1 µM]	nt	-4.5%	?	nt	nt	?	2%[46.1 µM]
O=S(=O)(Nc1cccc(S(=O)(=O)N2CCCC2)c1)c1ccc(F)cc1	-14%	3%	nt	nt	6%	nt	30%[activator]	1%
O=c1c2ccccc2nnn1CSc1nnc(COc2ccc(Cl)cc2)n1Cc1ccco1	-21%	1%	1.5%	4%	5%	-3%	0%	-1%&-20%
OCCN(CC#CC(O)(c1ccccc1)C1CCCC1)CCO (stereo not drawn)	1%	-2%	1.0%	1%	7%	-19%	-12%	5%
C=CCNC(=O)C1CC(=O)N(c2ccc(OCC(=O)Nc3ccc(CC)cc3)cc2)C1 (stereo not drawn)	nt	4%	nt	nt	3%	-7%	8%	nt
CCc1noc(C)c1C(=O)N1CCN(S(=O)(=O)c2c(C)c(C)cc(C)c2C)CC1	2%	1%	nt	nt	23%	nt	-24%	-16%
COc1ccc(CNC(=O)CNC(=O)c2ccc(Br)o2)cc1OC	2%[46.1 µM]	-2%	nt	nt	17%	6%	-2%	0%[46.1 µM]
CCc1ccccc1NS(=O)(=O)c1ccc2oc(=O)c3ncn(C)c3c2c1	0%[46.1 µM]	nt	-1.1%	1%	nt	nt	-11%	nt
Cc1ccccc1C1CC(=O)NC2=C1C(=O)CCC2 (stereo not drawn)	0%	-1%	3.3%	-2%	25%	10%	-24%	21%
CN(C)c1ccc(/C=N/NC(=O)c2ccn(C)n2)cc1	?	-2%	nt	nt	2%	-37%	3%	-2%
CCC(CC)C(=O)N1CC(=O)Nc2ccc(Br)cc2C1c1ccccc1 (stereo not drawn)	nt	-2%	-6.1%	-1%	-14%	10%	-2%	nt
COc1ccc(S(=O)(=O)NCC2CCCN(C(=O)c3ccccc3)C2)cc1 (stereo not drawn)	nt	-1%	nt	nt	1%	0%	0%	nt
CC(=Nc1ccccc1C(F)(F)F)c1ccncc1	21%[46.1 µM]	2%	nt	nt	7%	8%	-15%	?
Cc1ccc(N(Cc2ccccc2O)C(=O)c2ccccc2F)cc1	nt	1%	nt	nt	2%	8%	1%	nt
Cc1ccc(S(=O)(=O)c2nc(-c3ccccc3)oc2N2CCCCCC2)cc1	?	nt	-20%	-5%	nt	nt	44%[activator]	?
CCOC(=O)c1[nH]c2ccc(Br)cc2c1NC(=O)CCN1CCCCC1	nt	-2%	1.1%	-1%	nt	-3%	nt	2%
O=C(c1ccco1)c1cn(Cc2ccc(Cl)cc2)c2ccccc12	?	-23%	-1.6%	-5%	2%	-76%	-5%	?
CCOC(=O)N1CCN(C(=O)CSc2nc3c([nH]c4ccccc43)c(=O)n2CC)CC1	?	nt	nt	nt	13%	4%	0%	?
(more compounds)
SMILES	LASV entry inh	SARS PLpro yeast	Cruzain inh Det	Cruzain inh noDet	RE007 growth inh	NS1 inh	2A StopGo	Marburg entry inh
CC(=O)OCC1=C(C(=O)O)N2C(=O)C(NC(=O)c3ccc(COc4ccc(Cl)cc4)o3)C2SC1 (stereo not drawn)	25%	8%	nt	nt	7%	nt	-11%	?
Cc1cccc(NC(=O)CSc2nc(=O)n(Cc3ccncc3)c3c2CCC3)c1C	-28%[46.1 µM]	nt	-2.5%	-2%	nt	nt	15%	nt
O=C(Cc1ccc(Cl)cc1)NCCS(=O)c1ccc(Cl)cc1 (stereo not drawn)	3%	-1%	3.1%	2%	2%	-11%	-18%	?
O=C(CNC(=O)c1ccc(Cl)cc1Cl)OCC(=O)N1CCCC1=O	16%	-4%	nt	nt	-13%	nt	-13%	-6%
CCC(C)n1c(=O)c2sccc2n2c(CCCC(=O)NCc3ccccc3Cl)nnc12 (stereo not drawn)	22%[46.1 µM]	nt	0.7%	-17%	nt	nt	-6%	nt
CCOc1cccc(N(C(=O)Cc2cccs2)C(C(=O)NC2CCCCC2)c2cccn2C)c1 (stereo not drawn)	-18%	-9%	-6.8%	-8%	-16%	10%	14%	?
CCOC(=O)c1cc(/C(C)=N/OC(=O)c2ccc(Cl)cc2)on1	9%	-1%	nt	nt	-11%	2%	13%	-5%
O=C(CSc1nnc(Cc2ccccc2)o1)N1CCCc2ccccc21	-20%	3%	-2.6%	-14%	4%	-56%	nt	0%
Cc1ccc(-n2c3c(cc(C(=O)NC4CCSC4=O)c2=O)C(=O)CC(C)(C)C3)cc1 (stereo not drawn)	-3%	-12%	-1.6%	3%	4%	7%	nt	0%
O=C(Nc1ccc(C(=O)N2CCOCC2)cc1)Nc1cccc(C(F)(F)F)c1	-16%	nt	nt	nt	1%	nt	6%	-19%
CCOC(=O)c1sc(NS(=O)(=O)c2ccc(C)cc2)nc1C	?	9%	-2.4%	-7%	13%	4%	88%[activator]	1%
CCN1CCCC1CNS(=O)(=O)c1c(C)cc(C)cc1C (stereo not drawn)	-23%	14%	nt	nt	139%	3%	4%	?
CCOc1ccc(OCC)c(NC(=O)CN2CCC(NC(=O)c3cccc(F)c3)CC2)c1	7%	0%	-1.3%	-4%	-14%	-36%	?	?

Assay outcomes as filed in PubChem.
